# Bfl-1 A1 inh = inhibitors of the anti-apoptotic protein A1, read as caspase activation. MEF A1-2A-BIM cells, Caspase-Glo 3/7 luminescence, 3 h; percent of clofoctol response, vehicle zero. caspase activation, % (concentration not given with the values). 0.066% of 330,000 active. AID 2462;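 active = over half of replicate activation scores above 10%, or exactly half above 10 with the replicate mean above 10; inconclusive = replicate mean below 10 yet half the replicates above 10; inactive = over half of replicates below 10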;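 note: wells of about 30 µL received 50 nL stock; many hits fall short of the cut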
# Beta cell apopt = beta cell apoptosis inhibition; 0.8% of 300,000 active; INS-1E cytokine-induced death, ATP luminescence, 48 h; percent of positive-control rescue, neutral wells zero; AID 435005; protection from apoptosis, % (test concentration not listed);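 active = all replicates at 75% or more, or half of them and the mean; inconclusive = half reach 75% but not the mean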;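 note: 0% = cytokine-treated negative control wells and 100% = positive control rescue; higher means more ATP so stronger rescue from cytokine killing; wells of about 40 µL received 100 nL stock; the first replicate is given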
# AF4-AF9 inh = MLL-AF4/AF9 protein interaction inhibition. inhibition, % at 10 µM. P42568. 0.47% of 350,000 active. AlphaScreen, biotin-AF4 peptide binding to FLAG-AF9;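 active = every replicate reaching a set inhibition limit, whatever the replicate mean, cut at about 25% in these data; inconclusive = mean inhibition reaches that limit but some replicates miss it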;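 note: 0% = plate neutral control median and 100% = total signal loss; the record names both 10 and 1 µM as test concentration; the first replicate is given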
# Target sequence (P42568 whole entry, looked up): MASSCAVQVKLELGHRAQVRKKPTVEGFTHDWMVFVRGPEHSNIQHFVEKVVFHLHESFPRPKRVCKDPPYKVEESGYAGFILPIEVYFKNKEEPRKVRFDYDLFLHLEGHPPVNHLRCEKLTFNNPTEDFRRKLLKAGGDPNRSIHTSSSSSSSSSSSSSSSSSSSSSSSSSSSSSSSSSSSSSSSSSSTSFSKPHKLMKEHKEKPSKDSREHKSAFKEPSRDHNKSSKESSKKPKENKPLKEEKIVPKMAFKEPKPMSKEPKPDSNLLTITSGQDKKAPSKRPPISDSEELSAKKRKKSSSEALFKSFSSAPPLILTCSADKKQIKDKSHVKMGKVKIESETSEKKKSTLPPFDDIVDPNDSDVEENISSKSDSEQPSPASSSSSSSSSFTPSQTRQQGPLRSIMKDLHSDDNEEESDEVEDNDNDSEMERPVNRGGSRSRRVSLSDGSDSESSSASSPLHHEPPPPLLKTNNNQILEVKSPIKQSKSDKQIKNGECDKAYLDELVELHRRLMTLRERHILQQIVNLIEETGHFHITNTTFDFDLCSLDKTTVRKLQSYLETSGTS
# Calb FLC = C. albicans growth modulation with fluconazole | C. albicans CaCi-2 (fluconazole-resistant clinical isolate) + fluconazole, Alamar Blue growth, 48 h | growth inhibition, % (concentration not given with the values) | 0.57% of 300,000 active | AID 1979;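 active = most replicates above 75%; inconclusive = exactly half above 75%; inactive = most below 75%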;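 note: all wells also contain fluconazole at 8 µg/ml as a sub-toxic cotreatment; 0% = median of DMSO wells and 100% = median of geldanamycin control wells; wells of about 8 µL received 7.5 nL stock; the first replicate is given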
# RanGTP-Impb inh = disruptors of Ran-importin-beta complex formation – biochemical, FRET, CFP-Ran, YFP-importin-beta, homogeneous, primary screen. inhibition, % (no concentration beside the values). 1.1% of 300,000 active. AID 2216. cell-free CFP-Ran/YFP-importin-beta FRET ratio;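 active = most replicates above 15%; inconclusive = exactly half above 15%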;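 note: 0% = DMSO wells and 100% = Ran loaded with GDP instead of GTP; wells of about 40 µL received 100 nL stock; the first replicate is given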
# T cruzi repl = blocks replication of Trypanosoma cruzi; inhibition, % (no concentration beside the values); 1.4% of 300,000 active; T. cruzi beta-gal in NIH3T3, luminescence, 90 h;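 active = mean inhibition across valid replicates above about 55%, limit read from the data; inconclusive = mean below that limit but half or more replicates reach it; inactive = mean below it, under half of replicates reach it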;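 note: signal also drops with host cell toxicity which is not excluded here; 0% = plate median of DMSO wells and 100% = zero luminescence signal; higher percent means less beta-gal luminescence so fewer parasites; stock transfer was 50 nL into about 50 µL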
# Ecoli rRNA inh = selective bacterial rRNA inhibition in E. coli; 1.6% of 350,000 active; AID 720706; E. coli WT GFP vs humanized-ribosome RFP mutants, fluorescence, 24 h; hits give low values; DMSO median 0, no signal -100; GFP signal change (wild-type ribosome), % (test concentration not listed);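 active = significant combined selectivity score with lowered wild-type GFP, culture density cut under 30%, mutant RFP and density less affected; inactive = any of these conditions unmet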; note: one replicate is shown; some compounds called inactive have numbers as strong as hits
# Vif A3G = inhibitors of Vif binding to APOBEC3G peptide, primary screen, biochemical, TR-FRET, GST-Vif 1-94, biotin-A3G peptide, dose response retest (AID 1117319); TR-FRET GST-Vif / biotin-A3G peptide binding; higher % means a stronger effect; test concentration not given here; strong numbers were not always called active; inhibition, %; hits with a dose series show IC50 in µM; 0.57% of 260,000 active;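 active = above the screen mean plus three standard deviations and confirmed in dose response; inconclusive = results disagree or hit not tested in dose response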;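 note: Vif residues 1-94 fused to GST binding biotinylated APOBEC3G peptide 110-148; 0% = full assay without inhibitor and 100% = GST in place of GST-Vif; retest series ran down from 100 µM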
# Ecoli rRNA inh OD600 = further read-out of Ecoli rRNA inh, marked with its call; OD600 change, %; measured here: OD600 growth;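 optical density of the mix in the first replicate; 0 = DMSO median and -100 = no signal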
# Ecoli rRNA inh RFP = second read-out of Ecoli rRNA inh, no call of its own (marks repeat the call); RFP signal change, %; measured here: RFP humanized mutant strains;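 first replicate; 0 = DMSO median and -100 = no signal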
# The depositor's hits bear a star; u = inconclusive; x = no result given; & = joins results of further samples. Some of the compounds tested. The share of hits here may be higher or lower than overall.
SMILES,Bfl-1 A1 inh,Beta cell apopt,AF4-AF9 inh,Calb FLC,RanGTP-Impb inh,T cruzi repl,Ecoli rRNA inh,Ecoli rRNA inh OD600,Ecoli rRNA inh RFP,Vif A3G
COc1ccc(C(=O)N(Cc2ccco2)C(C(=O)NC2CCCC2)c2ccc(O)cc2)cc1OC (centres undefined),0.6,3,x,-4,x,-10,x,x,x,3%
O=C(Nc1ccc(NC(=O)C23CC4CC(CC(C4)C2)C3)cn1)c1ccco1,0.8,-3,x,0,-2.1,-3,x,x,x,22%
COc1ccc(CN(CCCN2CCOCC2)C(=O)Nc2cccc(Cl)c2)cc1OC,-0.3,-1,x,x,0.2,9,x,x,x,-8%
Cc1cc(NC(=O)CSc2nnc3c4c(C)c(C)sc4ncn23)no1,0.9,7,-21,19,2.5,12,8,5,15,-4%
O=C(NC(=S)N1CCN(c2ccc(F)cc2)CC1)c1cccs1,-0.3,-7,4.9,35,1.6,-43,-53,-78,-14,12%
COc1ccc(NC(=S)Nc2cnc3ccccc3c2)c(OC)c1,0.9,-7,3.4,1,u,-8,-3,2,1.2,-3%
Cc1cc(C)n(CCCNC(=O)CCNS(=O)(=O)c2ccccc2C(F)(F)F)n1,-0.3,2,0.5,-2,2.2,8,12,4,2.4,x
CC(C(=O)Nc1ccc(C(F)(F)F)cc1)N(C)CC(=O)N1CCN(Cc2ccccc2)CC1 (centres undefined),0.5,-1,1.3,x,x,x,-19,-59,5.5,11%
N#Cc1cccc(C#N)c1Oc1ccc(S(=O)(=O)Nc2ccccc2)cc1,-0.3,-7,-0.3,6,5.2,18,x,x,x,x
N#CCCCSc1nnc(Cc2ccc3c(c2)OCO3)o1,-1.6,-7,x,10,-0.5,-14,x,x,x,-2%

# Reprinted from the part before: 2 entries, then new ones.
SMILES,Bfl-1 A1 inh,Beta cell apopt,AF4-AF9 inh,Calb FLC,RanGTP-Impb inh,T cruzi repl,Ecoli rRNA inh,Ecoli rRNA inh OD600,Ecoli rRNA inh RFP,Vif A3G
N#Cc1cccc(C#N)c1Oc1ccc(S(=O)(=O)Nc2ccccc2)cc1,-0.3,-7,-0.3,6,5.2,18,x,x,x,x
N#CCCCSc1nnc(Cc2ccc3c(c2)OCO3)o1,-1.6,-7,x,10,-0.5,-14,x,x,x,-2%
O=C(c1cc(-c2ccc(Br)cc2)on1)N1CCOCC1,-4.6,4,0.1,-10,-0.9,-1,4,13,-0.9,21%
Cc1ccc2[nH]c(C)c(CCNC(=O)NC3CCCCC3)c2c1,-1.1,0,-5.0,10,x,x,-4,6,24,-4%
Cc1nn(Cc2ccc(Cl)cc2)c(C)c1NC(=O)C1CC=CCC1C(=O)O (centres undefined),0.4,-11,x,2,-0.1,-1,x,x,x,19%
O=C(NC1(C(F)(F)F)C(=O)Nc2c1c(=O)[nH]c(=O)n2Cc1ccccc1)c1ccc(Cl)cc1Cl (centres undefined),0.5,-5,-6.8,-4,-0.5,-5,7,6,-6.7,-8%&-3%
N#CC1=C(N)C(C#N)(C#N)C2(C(=O)Nc3ccccc32)C2CCCC=C12 (centres undefined),0.4,-2,x,8,-0.3,-5,x,x,x,17%
CC[C@@]12C(=O)N(c3cccc(F)c3)C(=O)N1[C@H](c1ccc(Br)cc1)[C@@H]1C(=O)N(C(C)(C)C)C(=O)[C@@H]12,-0.1,10,x,6,-0.6,4,x,x,x,x
CCOC(=O)c1sc(/N=C/N(C)C)nc1C,-0.6,-6,2.6,-8,-1.6,0,12,8,1.5,x
c1ccc(COc2ccc(OCCCNC3CCCC3)cc2)cc1,0.1,2,x,-6,-2.1,51,-47,-72,-11,2%
NC(=O)C1CCN(Cc2ccc(OCc3ccccc3)cc2)CC1,-0.6,-4,-14,-6,-2.1,-8,9,10,0.0,x
CCc1nccn1S(=O)(=O)c1cc(Br)ccc1OC,-0.8,-6,x,1,-9.5,-18,x,x,x,3%
O=C(Cn1nc(Cc2cccnc2)c2ccccc2c1=O)Nc1ccccc1F,0.5,-4,-24,9,2.0,-11,2,-6,0.9,x
COc1ccc(-n2nc(C(=O)Nc3nc4ccc(OC)cc4s3)c3ccccc3c2=O)cc1,0.5,5,2.1,-13,0.8,12,21,19,-7.2,x
COc1ccc(-c2cc(=O)oc3cc(OCC(=O)Nc4ccc(CCO)cc4)ccc23)cc1,1.2,3,-0.7,-2,0.6,-16,11,9,0.8,x
CC(CN(C)Cc1ccccc1)OC(=O)c1ccccc1F (centres undefined),-0.3,-12,x,4,-6.7,-13,x,x,x,26%
Cc1cccc(NC(=O)CSc2nnc(CCCCCNC(=O)OC(C)(C)C)o2)c1C,0.1,6,x,5,u,11,x,x,x,-2%
O=C(NN=C1c2ccccc2-c2ccccc21)c1ccccn1,1.6,12,0.6,-3,-2.5,31,12,11,-7.6,7%
CC(=O)c1ccc(OCCCC(=O)NC(C)c2ccc(S(N)(=O)=O)cc2)cc1 (centres undefined),0.3,1,-8.3,-6,-0.8,-9,0,3,2.0,-4%
CC1CCCCC1NC(=O)c1cc2c(s1)CS(=O)(=O)C2 (centres undefined),0.3,-5,x,-3,4.7,2,x,x,x,26%
CC(=O)c1ccc(C(=O)N2CCC(CO)(Cc3cccc(C(F)(F)F)c3)CC2)cc1,0.5,8,1.0,7,-2.6,-28,-15,-21,-5.7,2%
CC(C)=CCc1c(O)cc(O)c2c(=O)c(O[C@@H]3O[C@@H](C)[C@H](O)[C@@H](O)[C@H]3O)c(-c3ccc(O)cc3)oc12,-0.9,4,x,2,1.2,-4,x,x,x,x
CC(C)NC(=O)N(C)C[C@H]1Oc2c(NC(=O)c3ccc(-c4nccs4)cc3)cccc2C(=O)N([C@@H](C)CO)C[C@H]1C,0.6,6,-11&3.4,x,x,x,-9&-15,-11&-5,-1.5&2.1,x
Cc1cccc(/C=N/NC(=O)Cn2nc(C)cc2C)n1,0.4,1,-4.1,-2,1.6,-2,18,8,-13,8%
COC(=O)C(F)(F)Sc1c(C)[nH]c2ccccc12,0.3,3,-96,x,x,x,17,6,0.2,12%
CC1CCCC(NC(=O)COC(=O)c2ccc3ccccc3n2)C1C (centres undefined),0.1,-1,x,20,-3.6,-4,x,x,x,-23%
O=C(Cn1cnc2ccccc2c1=O)Nc1ccc2c(c1)OCCO2,-2.8,x,x,14,-0.8,-5,x,x,x,9%
COCCN(C(=O)Cc1cccs1)C(C(=O)NCc1ccc(OC)cc1)c1ccccc1 (centres undefined),-0.3,-6,x,u,-1.1,8,x,x,x,29%
CCC(C)Sc1nc2ccccc2n1CC(=O)O (centres undefined),0.1,0,x,12,0.7,-19,x,x,x,30%
CCOC(=O)C(CCCOc1ccc(C)cc1)C(=O)OCC,0.2,3,x,9,0.1,1,x,x,x,0%
CN(C)CCCNC(=O)C1(O)c2cc(Br)ccc2NC(=O)N1c1ccc(Cl)cc1 (centres undefined),-1.7,-2,-0.5,-9,5.4,-1,6,7,-1.3,0%
O=C(c1cc(Cl)ccc1Cl)N1CCc2ccccc21,0.2,-9,-4.1,2,4.4,10,-16,-18,-2.3,-3%
CC(C)(C)NC(=O)C(OC(=O)Cn1nnc(-c2ccc(F)cc2)n1)c1ccncc1 (centres undefined),-0.8,x,x,-12,-2.6,-11,x,x,x,-2%
CC(NCc1ccc([N+](=O)[O-])cc1)C1COc2ccccc2O1 (centres undefined),0.3,-7,2.0,-5,-2.2,11,-8,-2,4.5,x
O=c1sc2ccccc2n1CCOc1ccccc1,-3.4,-1,x,-4,-1.6,-6,-43,-55,-11,4%
CCOC(=O)Cc1cc(=O)n2[nH]c(C)c(-c3ccccc3)c2n1,1.1,0,x,-1,-1.6,-4,x,x,x,7%
CC(=O)Nc1ccc(S(=O)(=O)N2CCCC2C(=O)O)cc1 (centres undefined),0.4,3,x,9,-0.1,-5,x,x,x,16%
CCN1C(=O)c2ccc(C(=O)Nc3cccc(C(=O)O)c3)cc2C1=O,-8.1,-4,0.7,-1,0.8,-7,9,10,-2.0,x
Cc1cc(=O)n2ncnc2n1COCCO,-0.7,-1,x,-4,2.3,-19,x,x,x,1%
CCS(=O)(=O)N1N=C(c2cccc(NS(C)(=O)=O)c2)CC1c1ccc(C)cc1 (centres undefined),0.6,2,0.7,0,0.1,3,-5,-4,3.3,3%
COc1cccc(C(=O)OCCCN(C)C)c1,1.1,4,-3.0,-4,-0.4,44,19,11,-4.1,1%
Cc1cc(NC(=O)c2cc(-c3ccccc3)on2)n(-c2ccccc2)n1,-0.1,-4,x,-5,0.8,2,x,x,x,11%
O=C1NC(=Nc2ccccc2)S/C1=C/c1cccnc1,-1.8,3,0.7,40,1.6,-2,14,10,-4.5,2%
O=C(Oc1ccc2c(c1)OCO2)c1ccc(Br)c(S(=O)(=O)N2CCOCC2)c1,0.1,-2,x,-3,3.0,-16,x,x,x,2%&-2%
O=C(CC(c1ccccc1O)N1CCCCC1)N1CCCCC1 (centres undefined),-0.3,-1,x,-11,1.4,-12,x,x,x,2%
NCC12CC3CC(CC(O)(C3)C1)C2,0.4,-5,6.8,-1,6.5,-15,11,4,-3.7,3%
Cc1[nH]c(=O)[nH]c(=O)c1S(=O)(=O)Nc1ccc(F)c(Cl)c1,0.3,-2,0.1,0,u,0,6,-5,-3.6,-3%
N#C/C(=N\Nc1ccc(F)cc1)C(=N)N1CCCCCC1,-5.3,x,1.8,24,1.2,22,11,26,-0.6,-15%
O=C(N/C(=C/c1ccccc1)C(=O)N1CCCCC1)c1ccc(Br)o1,0.8,-5,2.7,42,3.8,-13,-3,-8,0.7,x
O=C(CCNC(=O)C1CCN(S(=O)(=O)c2ccccc2)CC1)NC1CC1,-0.3,-5,1.5,3,-0.3,-10,6,15,1.0,x
Nc1nnc(SCC(=O)c2ccc3ccccc3c2)s1,0.2,-1,x,-7,-3.1,1,x,x,x,8%
CCOc1ccc2[nH]c(=O)c(CN(CCOC)C(=O)N3CCOCC3)cc2c1,-0.2,2,x,-1,-6.3,-1,x,x,x,4%

# Next section
SMILES,Bfl-1 A1 inh,Beta cell apopt,AF4-AF9 inh,Calb FLC,RanGTP-Impb inh,T cruzi repl,Ecoli rRNA inh,Ecoli rRNA inh OD600,Ecoli rRNA inh RFP,Vif A3G
COc1ccc(S(=O)(=O)N2CCC(C(=O)N3CCc4ccccc4C3)CC2)cc1C,-0.7,-8,x,4,5.2,18,x,x,x,1%&-5%
COC(=O)c1ccc(S(=O)(=O)NCc2cccc(OC)c2)n1C,-0.3,-2,x,-10,0.0,5,x,x,x,9%
COC(=O)CSc1nc2cc3c(cc2cc1C#N)OCO3,-6.1,1,x,3,2.1,-1,x,x,x,-8%
Cc1ccccc1NC(=O)CN1C(=S)NC(C)(C)CC1C (centres undefined),-0.3,-5,x,1,-3.2,-7,x,x,x,x
O=C(OC1CCCCC1=O)c1cccc(S(=O)(=O)N2CCCCC2)c1 (centres undefined),0.6,-2,-0.1,1,0.3,-5,-5,-7,-2.7,-2%
